# YopH inh = YopH tyrosine phosphatase inhibitors, primary screen, biochemical, fluorescence Ex485/Em525; YopH tyrosine phosphatase [Yersinia enterocolitica]; inhibition, %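 (about 10 µM by stock and volumes)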; actives 0.16% (n = 140,000); AID 898, 2007;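 active = inhibition of 50% or more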;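 also: controls were vehicle for no effect and minimum signal wells for full effect; inactives centre near -20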
# Mtb bLac sens = beta-lactam sensitization of Mtb H37Rv, H37Rv. M. tuberculosis H37Rv growth with meropenem, percent inhibition; hits of this screen are not shown here. inhibition, % at 25 µM. actives 0.27% (n = 330,000). AID 434955, 2010;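 active = about 74% or more and at least 40 points above the plate without the antibiotic, then above 30% in a dose series; inconclusive = first-round hits that could not be retested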;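 also: growth measured after seven days incubation then overnight dye step; 0% = bacteria only wells and 100% = bacteria with antibiotic; twin plates without the antibiotic show which effects depend on it; some results filed as inactive read as strong as hits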
# RecA intein inh = Mtb RecA intein splicing inhibitors, primary screen, biochemical, fluorescence, HTS; actives 0.75% (n = 290,000); cell-free RecA intein splicing; inhibition, %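 (about 9 µM by stock and volumes)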; Protein RecA (Mycobacterium tuberculosis (strain ATCC 25618 / H37Rv)), P9WHJ3; in the data active = inhibition above about 30%; inconclusive = no clear call, values can overlap the other calls;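 also: 0% = vehicle wells and 100% = reference inhibitor control wells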
# Target sequence (P9WHJ3 whole entry, looked up): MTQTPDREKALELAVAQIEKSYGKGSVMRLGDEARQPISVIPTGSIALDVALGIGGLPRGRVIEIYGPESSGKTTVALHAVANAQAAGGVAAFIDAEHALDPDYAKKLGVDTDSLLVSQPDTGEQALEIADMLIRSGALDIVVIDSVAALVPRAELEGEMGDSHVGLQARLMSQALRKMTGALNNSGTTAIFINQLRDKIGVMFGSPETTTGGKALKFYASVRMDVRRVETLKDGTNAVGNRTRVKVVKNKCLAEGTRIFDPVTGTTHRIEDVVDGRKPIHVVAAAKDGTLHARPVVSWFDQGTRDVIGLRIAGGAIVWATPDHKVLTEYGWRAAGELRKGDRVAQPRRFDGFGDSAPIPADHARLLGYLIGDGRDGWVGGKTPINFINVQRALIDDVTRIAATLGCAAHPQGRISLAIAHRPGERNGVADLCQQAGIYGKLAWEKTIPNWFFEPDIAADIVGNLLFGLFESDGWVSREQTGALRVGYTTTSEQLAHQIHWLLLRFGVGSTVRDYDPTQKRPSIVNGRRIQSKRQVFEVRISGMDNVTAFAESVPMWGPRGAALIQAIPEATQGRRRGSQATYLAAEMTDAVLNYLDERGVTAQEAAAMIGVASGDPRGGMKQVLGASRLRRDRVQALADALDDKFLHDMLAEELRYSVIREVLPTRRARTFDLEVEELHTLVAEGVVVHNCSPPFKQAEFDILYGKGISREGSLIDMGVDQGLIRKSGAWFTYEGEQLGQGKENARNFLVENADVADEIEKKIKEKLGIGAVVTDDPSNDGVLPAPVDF
# Mtb growth = M. tuberculosis H37Rv growth inhibitors, H37Rv strain (AID 1626) | M. tuberculosis H37Rv growth inhibition; higher % means a stronger effect | one-dose inhibition, % at 10 µM; IC50 in µM for titrated hits | actives 0.95% (n = 220,000);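 active = confirmed in a dose series; inconclusive = inhibition above 80% but not taken into the dose series; inactive = below 80% or under 30% at every dose of the series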;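 also: bacteria incubated seven days before Alamar blue readout; 0% = bacteria only wells and 100% = bacteria with antibiotic wells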
# Arbovirus inh = antivirals against arbovirus infection, primary screen, cell-based, full library, 10K replicate subset | arbovirus infection cell-based antiviral screen | inhibition, % at 10 µM | actives 0.37% (n = 200,000) | AID 1251, 2008;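 active = inhibition from about 30%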;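 also: bluetongue infection of BSR cells; cell survival read as ATP light after 72 h; 0% = infected wells without compound and 100% = uninfected wells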
# Arbovirus inh repeat = recorded beside Arbovirus inh, whose call it bears; inhibition, %; measured here: 10K subset replicate screen; many hits read low in the repeat;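 first of two repeat runs on a subset; 0% = infected and 100% = uninfected wells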
# * = called active by the depositor; ? = inconclusive; nt = no result given. Only part of the results is shown; rates above refer to the full screens.
SMILES,YopH inh,Mtb bLac sens,RecA intein inh,Mtb growth,Arbovirus inh,others
O=C(COc1ncnc2sccc12)Nc1ccc2c(c1)OCCO2,-11.8,-2.1,0.4,-5.7%,1.6,
CC(C)OC(=O)c1cc2c(ccn2C)n1CC(=O)N1CCC(Cc2ccccc2)CC1,6.4,1.1,13.8,-7.0%,-20.9,
CCN(CC)S(=O)(=O)c1cc(C(=O)OCC(=O)Nc2cccc(C)c2C)ccc1F,-24.1,-7.1,1.6,4.5%,9.0,
O=[N+]([O-])c1ccc2c(c1)C(c1ccccc1)=NCCN2,nt,-3.9,2.6,nt,nt,
Cc1ccc(S(=O)(=O)N(C)CC(=O)O/N=C(\N)c2cccc(Br)c2)cc1,nt,31.8,6.4,nt,nt,
COc1cccc(OC)c1C(=O)Nc1cccc(-n2cnnn2)c1,nt,-1.8,1.8,nt,nt,
CC(C)C(NC(=O)c1ccccc1F)C(=O)NCc1ccccc1 (stereo not given),nt,-3.5,0.7,nt,nt,
COc1ccc(/C=N/N2CCN(C)CC2)cc1OC,-37.4,-8.3,1.5,-10.2%,-2.3,
Cc1ccc(O)c(NC(=O)c2cc(-c3cccs3)on2)c1,nt,3.0,-2.6,nt,nt,
COc1ccc(C(C(=O)NC2CCCC2)N(CCN2CCOCC2)C(=O)c2ccc(OC)c(OC)c2)cc1 (stereo not given),-8.1,3.4,0.9,-4.2%,3.1,
NS(=O)(=O)c1ccc(NC(=O)C2(c3ccccc3)CCCC2)cc1,nt,-3.3,-0.2,2.3%,-0.8,
COc1ccc(OC)c(NC(=O)c2ccccc2N(Cc2ccccc2)S(C)(=O)=O)c1,nt,-3.3,0.0,-12.4%,-2.6,
COc1cc(OC)cc(C(=O)NC2CC(C)(C)NC(C)(C)C2)c1,nt,-6.9,-3.5,nt,nt,
COc1ccc(C(=O)N2c3cc4c(cc3C(C)=CC2(C)C)OCO4)cc1,-28.8,nt,9.7,16.7%,-7.0,
CCCCc1nc(C(N)=O)c2[nH]c(=O)n(-c3ccc(OCC)cc3)c2n1,nt,?,0.6,nt,nt,
CN1CCN(CC(=O)Nc2cc(S(=O)(=O)N3CCOCC3)ccc2Cl)CC1,nt,-4.5,-2.9,nt,nt,
COc1ccccc1C(=O)NCCC(=O)NCC(c1ccccc1OC)N1CCCC1 (stereo not given),nt,4.8,1.0,nt,nt,
CC1CN(c2nc3ccccn3c(=O)c2/C=C(\C#N)S(=O)(=O)c2ccccc2)CC(C)O1 (stereo not given),-11.4,-2.2,3.3,3.1%,4.5,
N#CC(c1ccccc1)N1CCOCC1 (stereo not given),nt,1.0,-1.4,-4.6%,nt,
N#Cc1ccc(/C=C2\CCn3c2nc2cc(C(=O)O)ccc2c3=O)cc1,nt,-5.7,-1.8,nt,nt,
COc1ccc(CNC(=O)c2cnc3n(c2=O)CCS3)cc1,-22.7,-5.7,-6.6,-5.0%,3.0,Arbovirus inh repeat=7.6
N#CCC(=O)N/N=C\c1ccc(OC/C=C/c2ccccc2)cc1,nt,9.9,8.6,nt,nt,
Cc1ccc(C(=O)c2ccc(C(F)(F)F)cc2)cc1,-10.5,-10.3,-0.5,-7.3%,2.8,
Cc1cc(-c2ccccc2)[nH]c(=O)c1S(=O)(=O)c1ccc(Cl)cc1,-5.2,?,0.8,-4.4%,1.4,
CC1CCCCN1S(=O)(=O)c1ccc(C(=O)Nc2nnc(C3=COCCO3)o2)cc1 (stereo not given),nt,82.8,0.2,nt,nt,
Cc1ccc2sc(-c3ccc(NC(=O)CCN4C(=O)c5ccccc5C4=O)cc3)nc2c1,-23.1,10.7,-2.7,-8.0%,-6.7,
Cc1ccc(C2=NN(C)c3nc4ccccc4n3C2)cc1,-22.0,96.4,-6.5,71.8%,10.4,
CCCCNc1cc(=O)n(C)c(=O)n1C,-36.9,-19.4,0.1,-7.4%,-1.9,
CC1(C)c2ccccc2N(CC(N)=O)C12C=Cc1ccccc1O2 (stereo not given),nt,-0.6,-0.3,-0.8%,nt,
NC1=Nc2cccc3cccc1c23,nt,6.7,-35.8,-4.8%,-3.1,
COc1ccc(C(=O)/C=C/Nc2cccc(C)n2)cc1OC,-14.9,-16.3,-2.8,-13.4%,-0.9,
CCCN(CCC)C1Cc2cc(OC)c(OC)cc2C1,nt,3.7,-0.7,0.1%,nt,
O=S(=O)(c1ccc(Cl)s1)N1CCCCC1,nt,0.1,-0.1,-0.3%,-2.3,
COc1ccc(CC(NC(C)=O)C(=O)NC2CCN(C(=O)Nc3ccc(C#N)cc3)CC2)cc1OC (stereo not given),-13.8,-2.9,0.9,-1.1%,4.4,
CC(=O)Nc1ccccc1O,-27.2,2.4,-3.2,-3.7%,-9.4,
Cc1cc(NC(=O)/C=C/C(=O)N(CC(=O)NC2CCCC2)c2cccc3ccccc23)no1,nt,-2.6,23.9,-0.3%,8.5,
CCCCC(CC)C(=O)Nc1ccccc1C#N (stereo not given),-2.0,-14.5,7.9,-5.6%,-0.5,
CCOC(=O)CNC(=O)CCNS(=O)(=O)c1ccc2c(c1)c(=O)n(C)c(=O)n2C,1.2,-4.4,-1.4,-5.6%,-6.4,
Cc1ccc(C(=O)c2ccc(N3CCOCC3)c(F)c2)cc1,-28.5,-1.3,-5.2,-0.9%,1.1,
Cc1ccccc1NC(=O)c1cc(S(=O)(=O)N2CCOCC2)cs1,-24.3,-13.9,0.9,-7.0%,5.0,
Cc1cc(/C=N/NC(=O)c2ccc(CN3CCOCC3)cc2)c(C)n1-c1ccccc1,-11.7,13.4,-2.2,6.3%,-6.8,
CC(=O)c1cccc(NC(=O)N2CCc3ccccc3C2)c1,-27.6,-7.1,2.6,-10.8%,-4.5,
COc1ccc(OC)c(NC(=O)Nc2ccc(Cl)cc2)c1,-4.3,9.1,2.9,-6.6%,-1.7,
Cc1ccc(CSc2nnc(CNc3ccc(F)cc3)o2)cc1,nt,13.0,0.9,-0.2%,-18.4,
Cc1ccc(CN(C(=O)N2CCN(C)CC2)S(=O)(=O)c2ccc(C)cc2)cc1,nt,-6.0,-1.5,nt,nt,
O=S(=O)(c1ccc(Cl)cc1)N1CCN(C(=S)Nc2ccc(F)c(Cl)c2)CC1,-7.3,-4.0,3.4,7.4%,8.9,
COc1ccc(-c2noc(CN(C)S(=O)(=O)c3ccc(C)cc3)n2)cc1,-3.8,-7.5,11.4,-10.5%,9.3,
CC(C)Cc1nnc(NC(=O)CCC(=O)Nc2ccc(F)cc2)s1,-22.9,-2.4,-0.7,-7.0%,3.8,
COc1ccccc1OCC(O)Cn1c(=N)n(CCN2CCCCC2)c2ccccc21 (stereo not given),12.4,-2.0,3.6,2.3%,-25.8,
COc1ccc(Cl)cc1C(=O)n1nc(C)cc1C,-17.5,0.5,-1.6,-5.3%,3.5,
CC(C)NC(=O)[C@@H]1CSC2c3ccccc3C(=O)N21 (stereo not given in full),nt,-3.8,0.8,nt,nt,
N#Cc1ccc(COC(=O)Cn2nnc(-c3ccccc3)n2)cc1,-29.2,2.7,0.8,-19.0%,-7.3,
O=C(N/N=C\c1cn[nH]c1-c1ccccc1)c1cccs1,-21.8,4.7,-2.1,0.8%,-2.9,
CC(c1nc2ccccc2c(=O)[nH]1)N1CCN(C)CC1 (stereo not given),-6.0,-5.9,0.2,-8.7%,11.2,
O=C(O)CCC(=O)Nc1ccc(N2CCCCC2)c(C(=O)O)c1,26.1,-2.9,0.0,-1.6%,9.0,
Cc1csc(NC(=O)CN2C(=O)c3ccccc3S2(=O)=O)n1,nt,-8.4,-1.8,nt,nt,
COC(=O)c1cccc(NC(=O)/C=C/c2ccc([N+](=O)[O-])cc2)c1,-30.0,6.8,2.5,3.4%,3.4,
Cc1ccc(S(=O)(=O)NCCn2nc(C)nc2C)cc1,nt,-7.7,0.3,nt,nt,
O=C(NCCCl)Nc1ccccc1OCCOc1ccccc1NC(=O)NCCCl,nt,1.2,6.3,nt,nt,
CC(Nc1c([N+](=O)[O-])c(=O)oc2ccccc12)c1ccccc1 (stereo not given),nt,-6.8,1.0,-5.2%,nt,
# Later entries:
SMILES,YopH inh,Mtb bLac sens,RecA intein inh,Mtb growth,Arbovirus inh,others
CCN1/C(=C/C(C)=O)Sc2ccc(OC)cc21,-24.7,-10.3,-1.2,-5.2%,-9.0,
C[C@@H](C(=O)N1CCN(C(=O)OC(C)(C)C)CC1)n1cc(CCC(=O)O)nn1,nt,-12.7,-0.6,-16.5%,5.9,
Cc1ccc(C)c(OCCOCCN2CCOCC2)c1,-47.5,10.7,0.2,-3.8%,0.7,
COCCNC(=O)c1ccccc1NC(=O)Cc1ccccc1,nt,-2.1,-3.3,-1.4%,-3.5,
CN=c1scc(-c2c[nH]c3ccccc23)n1C,nt,nt,nt,4.9%,17.1,
CN1CCN(c2nnc(-c3ccccc3)c(-c3ccccc3)n2)CC1,nt,-4.8,1.4,nt,nt,
CC(C)(O)C#Cc1ccc(C(=O)N2CCC(CCC(=O)NC3CC3)CC2)cc1,nt,4.6,-3.0,nt,nt,
CN(CCOC(=O)c1ccco1)Cc1ccccc1,5.0,-7.0,4.3,0.2%,3.1,
O=C(CS(=O)(=O)c1ccccc1)NCc1ccc(Cl)cc1,nt,-1.4,-0.7,nt,nt,
O=S(=O)(NC(=NC1CCCCC1)c1ccccc1F)c1ccccc1,nt,-6.8,0.3,nt,nt,
CN1CCN(C(=O)c2cnn3c(C(F)F)cc(C4CC4)nc23)CC1,-36.2,-10.1,-10.5,-5.2%,4.6,
COc1ccc(-n2ncc(C(=O)N3CCN(c4ccc(F)cc4)CC3)c2C)cc1,nt,-8.4,2.4,-6.1%,nt,
C=CCn1c(SCC(=O)NCc2ccccc2)nnc1C1CCCCC1,-6.4,-14.8,-0.2,-2.3%,1.4,
Clc1ccc(N2CC2c2ccncc2)cc1 (stereo not given),nt,-10.2,-0.1,nt,nt,
O=C(Nc1nc2ccccc2n1CCN1CCOCC1)c1ccc(Cl)cc1,nt,57.7,nt,26.5µM*,nt,
COc1cccc2cc(C(N)=O)/c(=N\NC(=O)c3ccccc3)oc12,nt,8.0,0.2,nt,nt,
Cc1nc(-c2ccc(F)cc2)c(CC(=O)N(C)CC(=O)Nc2ccc(Br)cc2C)s1,nt,-4.1,1.7,nt,nt,
CCOC(=O)N1CCN(C(=O)CCS(=O)(=O)c2ccc3c(c2)CC(C)N3C(=O)CC)CC1 (stereo not given),nt,7.7,-1.4,nt,nt,
CNS(=O)(=O)c1ccc(NC(=O)c2cncc(Br)c2)cc1,nt,-9.2,-2.2,1.6%,1.8,
CCc1noc(C)c1C(=O)Nc1nc(-c2cc(OC)ccc2OC)cs1,nt,-1.5,-1.2,nt,nt,
C=CCNC(=O)CSc1nnc(-c2ccncc2)n1CCc1ccccc1,0.5,-5.2,5.6,1.2%,2.8,
C=CCNC(=O)c1ccccc1Cl,-44.9,?,-5.3,-1.3%,1.5,
O=c1c(-c2c(O)cc(O)c3c(=O)cc(-c4ccc(O)cc4)oc23)c(-c2ccc(O)cc2)oc2cc(O)cc(O)c12,nt,2.5,nt,5.9%,nt,
O=C(CSc1n[nH]c(-c2ccncc2)n1)NCCc1ccccc1,-22.4,-10.7,2.5,-0.3%,4.6,
CS(=O)(=O)N1CCC(C(=O)NCc2ccc(F)cc2)CC1,nt,-3.1,1.3,1.2%,5.2,
O=C(Nc1ccc(F)cc1)c1ccc(CSc2ccccc2)o1,-10.1,-1.5,9.3,-4.2%,5.8,
Cc1ccc(-n2c(C)nn(CCOc3ccccc3)c2=O)cc1,nt,2.0,-4.4,6.3%,-0.3,
Cc1cccc(C)c1NC(=O)CSc1nc2c([nH]1)c(=O)n(C)c(=O)n2C,nt,-9.3,-6.9,nt,nt,

# Source: PubChem BioAssay (several laboratories)
